Source: PubChem (National Center for Advancing Translational Sciences (NCATS))
Rango complex inh: qHTS Assay for Inhibitors of Rango (Ran-regulated importin-beta cargo) - Importin beta complex formation; Rango CFP/YFP FRET sensor + importin beta, 45 min; Importin subunit beta-1 (Homo sapiens), Q14974; Potency, µM (series often up to 92.2 µM), inactives show at the top dose inhibition of complex formation; hit rate 0.031% among 340,000; active = rising FRET ratio curve, often small or poorly fitted; inconclusive = mostly compound fluorescence or quenching in the first reads; inactive = flat curves in all reads;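 further: potency means the concentration at half of the fitted maximal effect; 0% = DMSO wells and 100% = buffer wells lacking importin beta; nearly all actives have a fitted effect of over 15% in size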
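FRET biosensor (snurportin 1 IBB flanked by EYFP and cerulean), 50 nM, with compound 5 min, then 0.125 microM importin beta in PBS, 1 mM DTT, 0.02% Tween-20, 0.1% BSA. CFP/YFP ratio read after 45 min at room temperature; pre-read flags interference.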
Rango release inh: qHTS Assay for Inhibitors of RanGTP induced Rango (Ran-regulated importin-beta cargo) - Importin beta complex dissociation; Snurportin-1 (Homo sapiens) + GTP-binding nuclear protein Ran (Homo sapiens) + Importin …; Biochemical FRET Rango-importin beta, RanGTP-induced dissociation; Potency, µM (top dose mostly 46.1 µM), for inactives: at the top dose activity change, negative = inhibition; hit rate 0.071% among 340,000; AID 540253, 2011; active means falling FRET ratio curve, often poorly fitted, with flat reads before Ran was added; inconclusive means other falling curves, or compound fluorescence or quenching; inactive means flat or rising ratio curve;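 further: potency means the concentration at half of the fitted maximal effect; % of control where 0% means no effect; nearly all actives have a fitted effect of over 45% in size; -100% = wells without RanGTP and RCC1; the record marks most hits as doubtful in a second field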
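Recombinant Rango FRET biosensor (EYFP–snurportin 1 IBB–cerulean CFP10) at 0.1 uM premixed with 0.25 uM importin beta in PBS, 1 mM DTT, 0.02% Tween-20, 0.1% BSA. Compound added 5 min; RanGTP-RCC1 (0.6 uM Ran, 2 mM GTP, 0.2 uM RCC1) then triggers release, read at 45 min.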
GLA inh pH 4.5: qHTS Assay for Inhibitors of Human alpha-Galactosidase at pH 4.5; Alpha-galactosidase A (Homo sapiens), P06280; 230,000 tested, under 10 active; activity change, negative = inhibition, % at 105 µM; purified enzyme, 4-MU-alpha-Gal fluorescence, pH 4.5; inconclusive = small, poorly fitted or top-dose-only inhibition, or a rising curve; inactive = flat fitted curve, though single readings scatter; no compound was filed as active;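 further: 0% = full activity with enzyme and -100% = basal without enzyme; dose as in the result columns while the protocol names 77 µM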
Target sequence (P06280 whole entry, looked up): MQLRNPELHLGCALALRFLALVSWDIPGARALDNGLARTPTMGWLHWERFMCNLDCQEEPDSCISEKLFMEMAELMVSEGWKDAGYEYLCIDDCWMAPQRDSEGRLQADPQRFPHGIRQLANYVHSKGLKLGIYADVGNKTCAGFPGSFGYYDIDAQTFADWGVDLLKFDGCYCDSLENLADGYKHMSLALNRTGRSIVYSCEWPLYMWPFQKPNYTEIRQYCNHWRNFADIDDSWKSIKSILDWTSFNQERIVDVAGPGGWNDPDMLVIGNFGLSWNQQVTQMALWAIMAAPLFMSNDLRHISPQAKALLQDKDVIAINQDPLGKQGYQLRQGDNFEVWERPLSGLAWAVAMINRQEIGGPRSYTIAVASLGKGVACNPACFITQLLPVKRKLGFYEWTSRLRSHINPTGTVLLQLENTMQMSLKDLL
miR-21 FLuc: qHTS Assay for Modulators of miRNAs and/orActivators of miR-21. HeLa miR-21 FLuc reporter, luciferase, 48 h. Potency, µM (highest dose often 38.3 µM), without a hit: top-dose reporter change, positive = more light. 340,000 tested, under 10 active; active = well fitted rising curve with a large enough effect; inconclusive = small, poorly fitted or top-dose-only effect; inactive = no such curve, though single readings can be large or run the other way;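 further: % of control where 0% means no effect; miR-21 action dims this reporter so a rising signal means less miR-21 action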
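HeLa cells endogenously expressing miR-21, stably carrying CMV-driven firefly luciferase with a downstream miR-21 binding site, 2000 cells/well. Titrations up to approximately 40 uM, 48 hours; luciferase luminescence read.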
* = called active by the depositor; ? = inconclusive; / = not tested or not shown; & = joins results of further samples. An excerpt; the hit share may differ from the screen's.

SMILES	Rango complex inh	Rango release inh	GLA inh pH 4.5	miR-21 FLuc
O=[N+]([O-])c1cccc(Cl)c1CSc1ccccn1	-0.3%	0%	0	-2%
COc1ccc(CCNC(=O)C/C(C)=N/NC(=O)c2ccc(N)cc2)cc1OC	0.6%	-1%	-15	-23%
Cc1ccc(OCC(=O)NCCCNC(=O)c2ccncc2)cc1C	0.5%	2%	/	-5%
COc1cccc(NC(=O)CN2C(=O)COc3ccc(Cl)cc32)c1	-0.4%	1%	-2	0%
Cc1cc2cc(CCNC(=O)c3cccs3)c(=O)[nH]c2cc1C	2.2%	-3%	2	-63%
CCOC(=O)CSc1nc(-c2ccccn2)ncc1OC	-0.2%	0%	-1	0%
CCCn1c(=S)[nH]c2ccc(C(F)(F)F)cc21	-2.6%	-13%	8	-7%
CCCn1nc(CC(=O)O)c2ccccc2c1=O	-1.3%	1%	6	-4%
O=C(NOCc1ccccc1)c1ccc(Cl)cc1Cl	-1.2%	2%	/	/
COC(=O)c1cc2ccccc2n1Cc1ccc(Cl)nc1	0.3%	-2%	/	-12%
O=C(NCCCN1CCOCC1)C(Sc1ccccc1)c1ccccc1 (configuration not stated)	0.6%	2%	2	-1%
CCN(CC)CCCNC(=O)C1CCN(C(=O)c2oc3cc4sc(N(C)C)nc4cc3c2C)CC1	-0.5%	56%	/	-37%
CCN(C(=O)CSc1nnc(C(C)N(C)C)n1-c1ccc(F)cc1)C1CCS(=O)(=O)C1 (configuration not stated)	-1.5%	-4%	/	/
c1ccc(Cc2cc[n+](Cc3ccccn3)cc2)cc1	-0.4%	-2%	4	8%
CCOc1ccccc1C(=O)N(CN1CCCC1=O)c1cccc(Cl)c1	-3.9%	7%	5	0%
COc1ccc(C2=NS(=O)(=O)N(C)C(C(=O)NC3CCCC3)=C2)cc1	1.6%	-18%	/	1%
CN1CCN(S(=O)C23CC4CC(CC(C4)C2)C3)CC1 (configuration not stated)	-0.3%	0%	5	-5%
COc1ccccc1C1CCN(C(=O)c2ccc(C(C)(C)C)cc2)CC1	0.9%	1%	/	0%
CC(C)C(=O)N1CCN(c2ccc([N+](=O)[O-])cc2Cl)CC1	-2.2%	-18%	-11	0%
CC(=O)NC(CC(=O)Nc1nccs1)c1ccccc1 (configuration not stated)	-0.6%	32%	2	-10%
COCC(C)NC(=O)C1CC(=O)N(c2ccc(C)cc2)C1 (configuration not stated)	1.0%	-15%	3	0%
COc1ccc(Nc2nc3ccc(C)cn3c(=O)c2/C=N/O)cc1	?	-14%	-24	-7%
COc1ccc(CCN2C(=O)NC(NC(=O)CC(C)C)(C(F)(F)F)C2=O)cc1OC (configuration not stated)	1.6%	-15%	-5	-3%
Cc1ccc(NS(=O)(=O)c2ccc(C(=O)N3CCCC(C(F)(F)F)C3)cc2)cc1 (configuration not stated)	-1.1%	0%	/	/
O=C(Nc1nccs1)c1nc[nH]c1C(=O)N1CCc2ccccc2C1	2.1%	3%	/	/
O=C(O)C(Cc1ccc(F)cc1)c1ccccc1 (configuration not stated)	-0.6%	-20%	/	-1%
CCN(CC)S(=O)(=O)c1ccc(NN=C2CCN(C)CC2)c([N+](=O)[O-])c1	-0.6%	-5%	-16	-4%
CCOc1ccc(N(Cc2ccc(OC)c(OC)c2)C(=O)c2ccco2)cc1	1.0%	-12%	-3	0%
CC1CCN(C(=S)c2ccccc2O)CC1	-0.1%	2%	2	-1%
Cc1cc2cc(CNC(=O)c3ccc(S(=O)(=O)N4CCCCC4)cc3)ccc2[nH]1	-3.4%	-25%	1	2%
O=C(COC(=O)Cc1ccc(Cl)cc1)NCc1ccco1	-2.9%	-2%	/	/
COc1cc(CN(CC2CCCO2)C(=O)c2ccco2)cc(OC)c1OC (configuration not stated)	3.8%	18%	/	2%
COc1ccc(-c2cc(C(=O)OCC(=O)N3CCCCC3)c3ccccc3n2)cc1OC	?	-7%	/	/
Cc1ccccc1S(=O)(=O)Cc1ccc(C(=O)NC2CC2)o1	-1.7%	44%	/	-2%
CCNC(=S)/C(=C(/[O-])c1ccc([N+](=O)[O-])cc1)[n+]1ccccc1	-4.1%	-18%	1	1%
CCOc1ccccc1OCCN1CCC(Cc2ccccc2)CC1	0.6%	-7%	-12	-3%
Cc1nn(-c2ccccc2)c2sc(C(=O)NC3CCCCC3)cc12	-2.9%	2%	-4	-3%
CCOC(=O)C1=C(CSc2nc3ccccc3s2)NC(=O)NC1c1cc(C)ccc1C (configuration not stated)	?	-3%	?	18%
Cc1ccc(/C(O)=C2/C(=O)C(=O)N(CCCn3ccnc3)C2c2cccnc2)cc1 (configuration not stated)	-1.8%	0%	/	/
COc1ccc(OC)c(S(=O)(=O)N2CCCC(C)C2)c1 (configuration not stated)	-0.4%	-7%	1	-3%

Exported with values under each structure: entries from further up
Below each compound – Rango complex inh	Rango release inh	GLA inh pH 4.5	miR-21 FLuc
COc1cc(CN(CC2CCCO2)C(=O)c2ccco2)cc(OC)c1OC (configuration not stated)
 : 3.8%	18%	/	2%
COc1ccc(-c2cc(C(=O)OCC(=O)N3CCCCC3)c3ccccc3n2)cc1OC
 : ?	-7%	/	/
Cc1ccccc1S(=O)(=O)Cc1ccc(C(=O)NC2CC2)o1
 : -1.7%	44%	/	-2%

Going on with the list.
SMILES	Rango complex inh	Rango release inh	GLA inh pH 4.5	miR-21 FLuc
Cc1ccc(C)c(C(=O)CSc2n[nH]c(-c3ccncc3)n2)c1	3.1%	-4%	-7	-14%
COc1cc(NC(=O)c2cc(-c3ccccc3)nc3c2cnn3C(C)C)cc(OC)c1OC	-0.4%	?	/	/
Cc1ccc(S(=O)(=O)NCCC(=O)NCCN2CCCCCC2)cc1	4.8%	0%	-7	-3%
Cc1ccc(NC(=O)C2CCC(N3C(=O)C4CCCCC4C3=O)CC2)cc1 (configuration not stated)	0.4%	1%	/	0%
CCOC(=O)C1CNc2cc(S(=O)(=O)CC)ccc2O1 (configuration not stated)	-2.4%	-8%	-26	0%
CC(C)(C)c1ccc(S(=O)(=O)Nc2cccc(C3OCCCO3)c2)cc1	-3.3%	-14%	-4	6%
CCCCn1c(NC(=O)C2CCCCC2)nc2ccccc21	0.5%	-8%	-2	22%
CCOc1ccc2nc(CN3CCN(Cc4ccccc4OCC)C(CCO)C3)ccc2c1 (configuration not stated)	-2.8%	-1%	/	18%
COC(=O)c1nc(-c2ccccc2)n[nH]1	-1.2%	2%	8	-3%
CCc1cccc(CC)c1NC(=O)C(NS(=O)(=O)c1cccs1)c1ccccc1 (configuration not stated)	2.6%	-9%	1	-6%
CCOc1ccccc1NC(=S)Nc1ccc2cn[nH]c2c1	4.8%	7%	4	-8%
NC1=NC2(CCCCC2)N=C(Nc2ccc(Br)cc2)N1	1.0%	4%	3	12%
CC(=O)Nc1ccc(CN2CCN(Cc3ccc(C)cc3)C(CCO)C2)cc1 (configuration not stated)	0.2%	-7%	2	0%
O=C(COC(=O)CCNS(=O)(=O)c1ccccc1)NNC(=O)c1ccccc1	-1.4%	9%	/	/
O=c1[nH]c(=S)[nH]c2[nH]c(=S)[nH]c12	/	/	0	2%
C=CCn1c(SCC(=O)c2ccc(OC)cc2)nnc1C(C)NC(=O)c1cccs1 (configuration not stated)	-0.8%	-6%	-12	-4%
COc1ccc(CCNC(=O)CC(=O)NCCc2ccc(OC)cc2)cc1	-1.2%	-9%	/	7%
COc1cc(OC)c(NC2=NCCCCC2)cc1Cl	3.0%	-4%	-1	-6%
CN(C)C1=NCCN1CC1CCCC1	2.4%	15%	/	/
CCN1CCN(CCCN(Cc2ccco2)C(=S)Nc2ccc(Cl)c(C)c2)CC1	-1.7%	-7%	-1	2%
CCn1c2ccccc2c2cc(NC(=S)N3CCOCC3)ccc21	2.4%	8%	4	16%
COc1ccc(NC(=O)c2ccccn2)cc1	-3.4%	-15%	4	23%
CCOC(=O)C1(Cc2ccccc2C)CCCN(C(=O)CCc2cccnc2)C1 (configuration not stated)	0.9%	15%	3	-17%
O=C(CN1C(=O)COc2ccc(S(=O)(=O)N3CCCCCC3)cc21)NCc1ccc(F)cc1	6.3%	13%	/	3%&-7%
Cn1c(NC(=O)c2ccc(F)cc2)c(-c2ccccn2)c(=O)c2ccccc21	-0.1%	11%	3	-2%
CC(=O)c1ccc(NC(=S)NC(=O)/C=C/c2ccco2)cc1	0.2%	3%	/	-10%
COc1ccc(CNC(=O)c2ccccc2[N+](=O)[O-])cc1	-0.4%	19%	2	-7%
COc1ccccc1-n1nc(C)cc1N	0.3%	?	-7	1%
Cc1c(C#N)c2ncn(Cc3ccccn3)c(=O)c2n1-c1ccccc1	4.2%	2%	-10	-14%
CCn1nc(C)cc1C(=O)N1CCCC(C(=O)c2ccc3ccccc3c2)C1 (configuration not stated)	2.4%	-2%	1	-4%

Some entries already given, showing only Rango release inh:
mol | Rango release inh
CC(=O)c1ccc(NC(=S)NC(=O)/C=C/c2ccco2)cc1 | 3%
O=C(CN1C(=O)COc2ccc(S(=O)(=O)N3CCCCCC3)cc21)NCc1ccc(F)cc1 | 13%
Cc1c(C#N)c2ncn(Cc3ccccn3)c(=O)c2n1-c1ccccc1 | 2%
COc1ccc(NC(=O)c2ccccn2)cc1 | -15%
COc1ccccc1-n1nc(C)cc1N | ?
Cn1c(NC(=O)c2ccc(F)cc2)c(-c2ccccn2)c(=O)c2ccccc21 | 11%
COc1ccc(CNC(=O)c2ccccc2[N+](=O)[O-])cc1 | 19%

Other results.
SMILES	Rango complex inh	Rango release inh	GLA inh pH 4.5	miR-21 FLuc
CCOc1ccc(NS(=O)(=O)c2ccc(C(=O)N3CCN(c4ncccn4)CC3)cc2)cc1	?	-1%	8	28%
NS(=O)(=O)c1ccc(NC(=O)c2cc(Cl)ccc2Cl)cc1	-4.5%	17%	8	3%
CC(=O)Nc1nnc(CCS(=O)(=O)c2ccc(C)c(C)c2)s1	-2.5%	5%	-9	-2%
CCOC(=O)c1c(NC(=O)Cc2cccs2)sc(C(=O)NC2CCCC2)c1C	-1.4%	14%	9	-7%
COc1ccc(N2C(=O)[C@H]3[C@@H](C2=O)C2c4ccccc4C=NN2[C@H]3C(=O)C(C)(C)C)cc1 (some centres not stated)	1.9%	14%	0	10%
COc1ccc(N(CCC#N)C(=O)/C(C#N)=C\c2cccs2)cc1	-0.4%	18%	-1	-4%
COc1cc(C(=O)NCC2CCCO2)ccc1OCc1ccccc1Cl (configuration not stated)	2.4%	9%	/	-2%
COC(=O)C1CCN(CC(=O)Nc2ccccc2Sc2ccccc2)CC1	0.4%	0%	-9	-2%
C=CCOc1c(Br)cc(/C=N/n2c(CC)n[nH]c2=S)cc1Br	-5.2%	-4%	-8	2%
COc1cccc(S(=O)(=O)NCc2ccc(C(=O)Nc3ccc(C)cc3)cc2)c1	-0.8%	1%	3	-9%
O=C(NCc1ccc(Cl)cc1)C1CCN(c2nnc(N3CCCC3=O)s2)CC1	-1.8%	-3%	/	-5%
COc1ccc(NC(=O)Nc2ccc3c(c2)C(=O)N([C@H](C)CO)C[C@H](C)[C@@H](CN(C)C(=O)Nc2ccc4c(c2)OCO4)O3)cc1	-0.2%	1%	/	/
O=C(COC(=O)c1ccco1)NCc1ccco1	-6.3%	7%	1	1%
Cc1cc(C)c(O)c(NC(=S)NC(=O)Cc2ccccc2)c1	-3.7%	1%	/	-5%
Cc1ccc(S(=O)(=O)N2CCOCC2)cc1C(=O)N1CC(C)CC(C)C1 (configuration not stated)	5.7%	1%	/	/
Cc1ccc(NC(=O)CC2C(=O)N(Cc3ccccc3)C(=S)N2NC(=O)c2cccc(F)c2)c(C)c1 (configuration not stated)	4.5%	11%	7	24%
COc1cccc(N(C(=O)c2snc(C(N)=O)c2N)C(C(=O)NCC2CCCO2)c2ccc(C)o2)c1 (configuration not stated)	-0.3%	0%	/	-5%
